Source: PubChem (Johns Hopkins Ion Channel Center)
KCNQ2 block: KCNQ2 potassium channel inhibitors, primary screen, cell-based, CHO-K1, FluxOR thallium flux, B-score (AID 2156) | 20 min; hits give low values; only compounds with negative scores are shown here; some inactives read as strong as hits | hit rate 1.1% among 310,000 | B-score at 10 µM;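 active = fluorescence ratio B-score at most minus 3 library SDs, with starting brightness B-score within 2 library SDs, cut at about -5.5 in these data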
Target sequence (O88943 whole entry, looked up): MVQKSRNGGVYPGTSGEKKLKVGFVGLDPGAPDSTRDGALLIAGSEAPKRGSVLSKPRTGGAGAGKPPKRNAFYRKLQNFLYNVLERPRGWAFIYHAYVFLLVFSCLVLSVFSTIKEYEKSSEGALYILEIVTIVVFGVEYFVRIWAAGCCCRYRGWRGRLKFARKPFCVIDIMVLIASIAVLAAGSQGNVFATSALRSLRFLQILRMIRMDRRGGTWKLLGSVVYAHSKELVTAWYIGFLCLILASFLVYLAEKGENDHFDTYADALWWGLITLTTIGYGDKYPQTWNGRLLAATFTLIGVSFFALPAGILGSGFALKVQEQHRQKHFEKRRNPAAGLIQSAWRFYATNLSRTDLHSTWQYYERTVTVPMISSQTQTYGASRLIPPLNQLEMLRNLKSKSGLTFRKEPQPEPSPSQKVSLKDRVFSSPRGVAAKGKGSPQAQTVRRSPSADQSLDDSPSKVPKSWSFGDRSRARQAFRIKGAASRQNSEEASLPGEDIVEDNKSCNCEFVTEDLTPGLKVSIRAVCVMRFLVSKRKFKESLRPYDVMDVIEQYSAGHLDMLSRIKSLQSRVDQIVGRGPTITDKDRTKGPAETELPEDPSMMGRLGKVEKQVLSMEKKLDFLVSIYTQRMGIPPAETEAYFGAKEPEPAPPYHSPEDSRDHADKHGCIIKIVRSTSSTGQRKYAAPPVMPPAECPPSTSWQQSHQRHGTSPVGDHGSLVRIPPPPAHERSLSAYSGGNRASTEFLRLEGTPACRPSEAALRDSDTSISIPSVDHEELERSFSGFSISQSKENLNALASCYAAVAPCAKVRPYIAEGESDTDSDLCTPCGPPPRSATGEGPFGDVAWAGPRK
KCNQ2 block baseline: also measured in KCNQ2 block; calls as there; B-score; measured here: initial fluorescence intensity artifact check;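 brightness before thallium and not channel activity; 0 = typical well and far values either way flag optical interference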
An asterisk follows results filed as active; i = inactive.

A first look:
SMILES | KCNQ2 block | KCNQ2 block baseline
COc1ccc(CCNC(=O)C(C)Sc2ccc(C)cc2)cc1OC (configuration not stated) | i | 1.29
CC(C)(C)NCCOc1ccc(Br)cc1 | i | 0.81

This part in full, previewed entries included:
SMILES | KCNQ2 block | KCNQ2 block baseline
COc1ccc(CCNC(=O)C(C)Sc2ccc(C)cc2)cc1OC (configuration not stated) | i | 1.29
CC(C)(C)NCCOc1ccc(Br)cc1 | i | 0.81
N#Cc1ccc(NC(=O)COC(=O)C2Cc3ccccc3CN2C(=O)c2ccccc2)cc1 (configuration not stated) | i | -0.22
COC(=O)C1=NN(c2ccccc2)C2(S1)S/C(=C\c1ccccc1)C(=O)N2c1ccccc1 (configuration not stated) | i | 1.46
Cc1ccc2c(c1)N=C(c1ccc(F)cc1)CO2 | i | -0.78
O=C(CSc1n[nH]c(=O)[nH]c1=O)Nc1ccc(C(=O)O)cc1 | i | 0.85
Cc1ccc(/C=C/C(=O)NCc2ccco2)o1 | i | 0.89
CC(Sc1ccc2ccccc2n1)C(=O)O (configuration not stated) | i | -0.25
Cc1ccc(NC(=O)c2cc(-c3ccco3)on2)cc1C | i | -0.88
COc1ccc(N2C(=O)c3ccccc3C2=O)cc1 | i | -1.8
O=C(c1ccc(Cl)cc1)c1cn[nH]c1-c1ccccc1O | i | 1.03
CCC(=O)c1c[nH]c(C(=O)N2CCOCC2)c1 | i | -0.16
Cc1cc(-c2ccc(C)c(S(=O)(=O)NCCCN(Cc3ccccc3)C(C)C)c2)on1 | i | -2.07
O=C(C1=C[C@@H](c2coc3ccccc3c2=O)C[C@@H](OCc2ccc(CO)cc2)O1)N1CCCCCCC1 | i | -1.78
CCN1C(=O)[C@H]2[C@@H](c3ccc(-c4ccccc4)cc3)N3CCCC[C@@]3(C(=O)OC)[C@H]2C1=O | i | 0.02

Some of these compounds in order of length of the SMILES, lowest first:
SMILES | KCNQ2 block | KCNQ2 block baseline
Cc1ccc2c(c1)N=C(c1ccc(F)cc1)CO2 | i | -0.78
Cc1ccc(NC(=O)c2cc(-c3ccco3)on2)cc1C | i | -0.88
O=C(c1ccc(Cl)cc1)c1cn[nH]c1-c1ccccc1O | i | 1.03
O=C(CSc1n[nH]c(=O)[nH]c1=O)Nc1ccc(C(=O)O)cc1 | i | 0.85
O=C(C1=C[C@@H](c2coc3ccccc3c2=O)C[C@@H](OCc2ccc(CO)cc2)O1)N1CCCCCCC1 | i | -1.78
CCN1C(=O)[C@H]2[C@@H](c3ccc(-c4ccccc4)cc3)N3CCCC[C@@]3(C(=O)OC)[C@H]2C1=O | i | 0.02

Continuation.
SMILES | KCNQ2 block | KCNQ2 block baseline
O=C(/C=C/c1ccc2c(c1)OCO2)Nc1ccc(Cl)cn1 | i | 0.11
Cc1nn(-c2ccc(Cl)cc2)c(Cl)c1/C=N/NC(=O)c1ccc(NS(=O)(=O)c2cccs2)cc1 | i | -0.43
COc1ccc(NC(=O)c2cc([N+](=O)[O-])ccc2NC(=O)CNCc2ccccn2)c(OC)c1 | i | -1.55
CCCn1nc([N+](=O)[O-])c(C(C#N)c2nc3ccccc3s2)c(Cl)c1=O (configuration not stated) | i | -3.53
O=C(CN1CCCCCC1)Nc1cc(C(F)(F)F)ccc1Cl | i | 0.05
CCc1cccc(NC2c3ccccc3C(=O)N2c2ccc(C)cn2)c1 (configuration not stated) | -7.55* | -1.3*
COC(=O)c1ccccc1S(=O)(=O)N(CCCO)Cc1cc2c(C)ccc(C)c2[nH]c1=O | i | -0.21
O=C(COc1ccc(Cl)cc1)NCCCNC(=O)c1ccccn1 | i | 1.16
COC(=O)c1ccc2c(=O)[nH]c(COC(=O)c3cccc(S(=O)(=O)N4CCOCC4)c3)nc2c1 | i | -1.41
Cc1nnc(NC(=O)c2ccc3c(c2)C(=O)N(CC2CCCO2)C3=O)s1 (configuration not stated) | i | -0.33
CCn1nc(C(=O)OCC(=O)NC(C)C)c2ccccc2c1=O | i | 1.98
CCN(C(=O)C1CCCN(c2ncnc3c2nc2n3CCCCC2)C1)c1cccc(Cl)c1 (configuration not stated) | i | -0.46
CCSc1ccccc1C(=O)Nc1cc(C)on1 | i | 0.69
COc1ccc(C(=O)N/N=C/C(Br)=C/c2ccccc2)cc1 | i | 0.06
O=C(c1ccc(S(=O)(=O)N2CCCC2)cc1)N(Cc1ccco1)C1CCS(=O)(=O)C1 (configuration not stated) | i | -0.58
Cc1ccc(-c2nc(NC(=O)CSc3nnc(C)s3)ns2)cc1 | i | 3.77
Cc1ccc(C)c(OCC(=O)NNC(=O)CSC(=S)N2CCCC2)c1 | i | 3.22
O=C(Nc1ccc(Cl)cc1)N1CCC(c2nc(-c3cccs3)no2)CC1 | i | -0.78
CC(SCc1ccccc1)C(=O)Nc1ccccc1F (configuration not stated) | i | 1.28
CCN(CC)c1ccc(/C=C(\C#N)C(=O)c2ccc(Br)cc2)cc1 | i | 14.8
O=C(NCc1ccco1)c1c(F)c(F)c(F)c(C(=O)NCc2ccco2)c1F | i | 0.18
CC1CN(C(=O)N2c3ccccc3Sc3ccccc32)CC(C)O1 (configuration not stated) | -6.23* | 0.2*
Cc1ccc(NC(=O)c2cc(S(=O)(=O)N(C)C)ccc2N2CCCC2)cc1S(=O)(=O)N(C)C | i | 1.01
Cc1nn(CC#N)c(=O)n1-c1ccc(Cl)cc1 | i | 1.74
CCOC(=O)C1CCCN(C2CC(=O)N(c3cccc(C(F)(F)F)c3)C2=O)C1 (configuration not stated) | i | 0.31
C=CCn1c(NCc2ccc(OC)cc2O)nc2ccccc21 | i | 0.32
C/C(=N\NC(=O)CNC(=O)c1ccco1)c1ccc(Br)cc1 | i | 1.19
O=C(NCc1ccc2c(c1)OCO2)c1cc(=O)[nH]c2ccccc12 | i | 0.9
CC1(C(=O)O)Cc2ccccc2C(=O)O1 (configuration not stated) | i | 0.18
CCCNc1nc2c(c(=O)[nH]c(=O)n2C)n1Cc1ccc(F)cc1 | i | 2.09

Shown with two lines to a compound: part of the list above.
Below each compound – KCNQ2 block | KCNQ2 block baseline
CCCNc1nc2c(c(=O)[nH]c(=O)n2C)n1Cc1ccc(F)cc1
  i | 2.09
Cc1ccc(NC(=O)c2cc(S(=O)(=O)N(C)C)ccc2N2CCCC2)cc1S(=O)(=O)N(C)C
  i | 1.01
O=C(NCc1ccc2c(c1)OCO2)c1cc(=O)[nH]c2ccccc12
  i | 0.9
Cc1ccc(-c2nc(NC(=O)CSc3nnc(C)s3)ns2)cc1
  i | 3.77
C=CCn1c(NCc2ccc(OC)cc2O)nc2ccccc21
  i | 0.32

(continued)
SMILES | KCNQ2 block | KCNQ2 block baseline
CCOC(=O)c1cc2c(nc1C)-c1cc(Cl)cc(Cl)c1OC2O (configuration not stated) | i | 0.45
NC(=O)c1cc([N+](=O)[O-])ccc1NCCc1ccccc1 | i | -0.45
CSc1ccc(CN2CCN(CC=C(C)C)C(CCO)C2)cc1 (configuration not stated) | i | -0.3
COc1ccccc1-c1ocnc1C(=O)Nc1ccc(N2CCOCC2)cc1N1CCOCC1 | i | 1.56
C=CCn1c(COc2cccc(C)c2C)nnc1SCC(=O)N1CCN(c2ccccc2)CC1 | i | -1.6
COc1ccc(N2CCN(Cc3nc(-c4ccc(Cl)cc4Cl)no3)CC2)cc1 | i | -0.25
CCOC(=O)C1CCN(C(=O)c2ccc3c(=O)n4c(nc3c2)CCCCC4)CC1 | i | -0.85
CCCC(=O)NC(=S)Nc1ccccc1N1CCOCC1 | i | 0.54
O=C(CP(=O)(c1ccccc1)c1ccccc1)Nc1nc2ccc(Cl)cc2s1 | i | -1.81
CC(C)(C)c1ccccc1OCCOCCNCc1ccccc1 | i | 1.65
COC(=O)c1cn(NC(=O)c2ccncc2)c(=O)c2ccccc12 | i | 0.37
Cc1cccc(C)c1NC(=O)C(c1cccc([N+](=O)[O-])c1)N(C)C(=O)c1ccccn1 (configuration not stated) | i | -0.5
COC(=O)c1cc(C)sc1NC(=S)N1CCN(CCc2ccccc2)CC1 | i | -0.05
CCOc1ccc2cc(C3CC(c4ccco4)=NN3S(C)(=O)=O)c(=O)[nH]c2c1 (configuration not stated) | i | -0.65
Cc1occc1C(=O)NNS(=O)(=O)c1ccc(Cl)cc1 | i | 0.43
CCC(NC(=O)c1cc(COc2ccc(C)nc2)on1)c1ccc(C)cc1 (configuration not stated) | i | 0.51
C#CCn1c(=NC(=O)c2ccc(Cl)s2)sc2cccc(OC)c21 | i | 0.33
CC(NC(=O)C1CCCN(S(=O)(=O)c2cnc[nH]2)C1)c1ccccc1 (configuration not stated) | i | 0.66
O=C(c1csc2c1CCCC2)N1CCN(c2ccccc2)CC1 | i | -0.4
COc1ccc(-c2noc(N3CCC(C(=O)NC(C)c4ccccc4)CC3)n2)cc1 (configuration not stated) | i | -1.09
COCCn1nnnc1C(c1cccs1)N1CCN(c2nc3ccccc3s2)CC1 (configuration not stated) | i | -0.88
COc1cc(OC)c(C(=O)Nc2ccc(S(=O)(=O)Nc3ncccn3)cc2)cc1OC | i | -1.23
O=C(CS(=O)(=O)c1ccccc1)Nc1nnc(-c2cccs2)o1 | i | 1.2
c1cnc2c(c1)ccc1cccnc12 | i | -1.17
Cc1ccc(S(=O)(=O)Oc2ccc(C)cc2/C=N/N=C2\NC(=O)C(C)S2)cc1 (configuration not stated) | i | 0.06
CCC12CN3CCN(CC(C3)/C1=N\NC(=O)c1ccc(Cl)cc1)C2 | i | 0.74
CCCCNC(=O)N(O)C1N(/N=C/c2ccccc2O)C(=S)SC1(C)C (configuration not stated) | i | -0.81
CCCCS(=O)(=O)N1CCCC(C(=O)Oc2ccccc2OC)C1 (configuration not stated) | i | 0.72
CCS(=O)(=O)N1CCN(S(=O)(=O)c2ccc(Cl)s2)CC1 | i | 0.58
Cn1c(=O)cc(OCC(=O)Nc2ccccn2)c2ccccc21 | i | 0.29
CCN(CC)c1ccc(N2C(=O)/C(=C\c3cccs3)SC2=S)cc1 | i | -0.68
COc1ccc(Cl)cc1-n1c(C)cc(C(=O)OCC(=O)N2CC(=O)Nc3ccccc32)c1C | i | 0.54
COc1ccc(CN2C(=NC(=O)C3CCCO3)SC3CS(=O)(=O)CC32)cc1 (configuration not stated) | i | 0.99
Cc1cccc(OCC(O)CN2C(C)(C)CC(O)CC2(C)C)c1 (configuration not stated) | i | 0.69
Cc1ccc(-c2noc(CCCN3C(=O)c4ccccc4C3=O)n2)cc1 | i | -0.05
COc1ccc(/C=C/C(=O)OCC(=O)Nc2cc(C(N)=O)cc(C(N)=O)c2)cc1 | i | 0.63
Cc1ccc(CNC(=O)C2CCC(=O)N(CCc3ccccc3)C2)s1 (configuration not stated) | i | 0.8
O=S(=O)(Nc1nc2ccccc2nc1Nc1cccc(S(=O)(=O)N2CCCCC2)c1)c1ccccc1 | i | -0.12
CCCCOC(=O)c1ccc(NC(=O)C(=O)NCc2ccncc2)cc1 | i | 0.47
CCN1CCN(CC(=O)Nc2sc3c(c2C#N)CCC3)CC1 | i | -0.73
O=C(NNC1CC(=O)N(c2ccc(Cl)cc2)C1=O)c1ccccc1Cl (configuration not stated) | i | 1.51
COc1cc(/C=N/Nc2nc3ccccc3s2)cc([N+](=O)[O-])c1O | i | -2.74
Cc1cccc(CCNS(=O)(=O)c2ccc3c(c2)CCN3C(=O)CCC(=O)O)c1 | i | 1.55
O=c1c2ccc(Cl)cc2[nH]c(=S)n1Cc1cccnc1 | i | -0.17
CC(C(=O)N1CCN(C=O)CC1)N1C(=O)c2ccccc2C1=O (configuration not stated) | i | 0.53
C=CCNC(=O)Nc1ccc(OCC)cc1 | i | 0.65
COc1ccc(NC(=O)Nc2cnccn2)c(OC)c1 | i | 0.13
Cc1cc(NC(=O)c2cc(-c3ccc(OC(C)C)cc3)nc3ccccc23)no1 | i | -1.73
O=C(NCc1ccc(F)cc1)c1ccc(S(=O)(=O)Nc2cccc(C(F)(F)F)c2)cc1 | i | -2.18
CCSc1cc(C2C(C#N)=C(N)OC(C)=C2C(=O)OC)c(C)o1 (configuration not stated) | i | 0.06
OC(CNCc1ccc(F)cc1)(c1ccccc1)c1ccc(F)cc1 (configuration not stated) | i | -0.82
CC(=O)Nc1ccccc1-c1ccc(C)o1 | i | 0.68
Cc1cccc(N/C=C/C(=O)c2ccc(Cl)cc2)c1 | i | -0.1
CCOc1ccc(S(=O)(=O)NC(C)C(=O)NCc2ccncc2)cc1 (configuration not stated) | i | 0.39
COc1ccc(-c2nnc(SCC(=O)c3ccc4c(c3)OCCO4)o2)cc1 | i | 0.57
CCOC(=O)NC(=S)Nc1cccc(NC(=S)NC(=O)OCC)c1 | i | -0.57
COc1ccc(Nc2cc(C)c3c(O)cccc3n2)cc1 | i | -1.49
Cc1ccc(/C=N/n2c(C)nc3ccccc3c2=O)o1 | i | -0.14
CCOc1ccccc1NC(=O)C(=O)/C=C(\O)c1cc(OC)ccc1OC | i | 3.55
CC(=O)N1C(C)c2ccccc2C(C)(C)CC12CCCCC2 (configuration not stated) | i | -0.8

Carrying on.
SMILES | KCNQ2 block | KCNQ2 block baseline
CCNC(=O)OCC12CC3CC(CC(C3)C1)C2 | i | 0.97
CCOC(=O)C1(Cc2cccc(OC)c2)CCCN(C(=O)c2cc(C)oc2C)C1 (configuration not stated) | i | -1.09
N#C/C(=N\Nc1cccc(Cl)c1)C(=O)c1ccccc1 | i | -1.37
Fc1ccccc1/C=N/Nc1nc(N2CCCCC2)nc(N2CCCCC2)n1 | i | -0.54
CC(C)CN(CC(C)C)C(=O)CN1C(=O)NC2(CCCc3ccccc32)C1=O (configuration not stated) | i | 0.29
COc1cc2ccccc2cc1C(=O)N1CC(C)CC(C)C1 (configuration not stated) | i | 0.35
COc1cc(CO)cc(Br)c1OCC(=O)O | i | 0.47

An excerpt of these results, with two lines to a compound.
Order of values – KCNQ2 block	KCNQ2 block baseline
> NC(=O)c1cc([N+](=O)[O-])ccc1NCCc1ccccc1
 : i	-0.45
> COc1ccc(N2CCN(Cc3nc(-c4ccc(Cl)cc4Cl)no3)CC2)cc1
 : i	-0.25

Some of the compounds tested; rates above refer to the full screens.
